# Assay outcomes: PubChem, ICCB-Longwood Screening Facility, Harvard Medical School
# CapD inh: Bacillus anthracis CapD inhibitors, primary screen, biochemical, fluorescence intensity; purified CapD enzyme, fluorescence intensity read-out; active compounds read low; some hits fall short of the stated cut; actives 0.23% (n = 140,000); z-score (no concentration beside the values);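 active = z-score under -4 in either of two replicates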;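 note: stock transfer was 100 nL into about 40 µL; score is relative to mean and spread of the plate; one replicate is shown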
# AID504770: growth inhibition of E. coli YBA685, primary screen, V. cholerae RctB inhibitors; actives 0.27% (n = 130,000); z-score (test concentration not listed); E. coli YBA685 rctB-dependent plasmid, OD600 growth, 3 h; active compounds read low; AID 504770, 2011;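 active = z-score under -2 on both plates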;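 note: wells of about 30 µL received 100 nL stock; score is relative to mean and SD of the test wells; the first replicate is given; strong numbers were not always called active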
# An asterisk follows results filed as active; / = no result given.
# Under each structure: AID504770, CapD inh
O=C(c1ccco1)N1CCN(C(=O)c2ccc(COc3ccc4c(c3)CCC4)o2)CC1
→ 1.9, -0.21
O=C(CSc1cc(Cl)ccc1Cl)OCC(=O)c1ccccc1
→ -0.05, 0.8
CCN(CC)S(=O)(=O)c1cc(C(=O)N2CCN(C(=O)c3ccc(C)c(S(=O)(=O)N(CC)CC)c3)CC2)ccc1C
→ /, -0.12
CC1(c2ccccc2)CC(C)(C)N(C(=O)Nc2ccccc2)c2ccccc21 (stereo not drawn)
→ /, -0.19
O=C(O)CCC(=O)Nc1ccccc1C#Cc1ccc(Br)cc1
→ -0.5, 16
O=C(O)CCCCCN1C(=O)C2C3C=CC(C3)C2C1=O (stereo not drawn)
→ -0.7, /
O=C(CSC1=Nc2ccccc2CS1)c1ccc[nH]1
→ 1.2, /
Cc1cc(OC(=O)c2cccs2)cc(OC(=O)c2cccs2)c1
→ -0.65, /
COC(=O)c1ccc2c(=O)n(CC3CCCO3)c(SCC(=O)N3CCN(c4ccccc4OC)CC3)nc2c1 (stereo not drawn)
→ /, -1.3
Cc1cc(C)cc(CC(C(=O)Nc2ccccc2)C(C)C(=O)O)c1 (stereo not drawn)
→ 1.4, -0.085
O=S(=O)(c1cccc2nsnc12)N1CCN(c2ccc(F)cc2)CC1
→ /, -0.8
CCn1nnc2cc(C(=O)OCC(=O)N(C)Cc3cccc(F)c3)ccc21
→ 1.5, /
COCCN1Cc2cccc(C(=O)NCc3cccs3)c2C1=O
→ -0.15, -0.63
Cc1cc(N/C=C(\C#N)S(=O)(=O)c2ccc(Cl)cc2)nc(C)n1
→ 0.8, -0.72
Cc1ccc(S(=O)(=O)N2CC(=O)N(O)C2c2ccccc2)cc1 (stereo not drawn)
→ -0.9, -0.01
COC(=O)c1ccc(NC(=O)C2CC(=O)N(C)C(=Nc3ccc4c(c3)OCO4)S2)cc1 (stereo not drawn)
→ /, -0.07
Cc1cc(C)c(C)c(S(=O)(=O)NC(C)C)c1C
→ -0.3, -0.38
CCC1CN(C(=O)NCc2ccccc2)c2ccccc2O1 (stereo not drawn)
→ -1.2, -1.3
CCN1CCN(Cc2oc(CO)cc(=O)c2O)CC1
→ 0.45, -1.1
N#Cc1c(N)c(C#N)c(-c2ccccc2)c2c1CCCC2
→ 1.4, 41
Cc1ccc(C2C(C#N)=C(SCC(=O)N3CCN(Cc4ccccc4)CC3)NC3=C2C(=O)CCC3)cc1 (stereo not drawn)
→ -0.5, /
CCOC(=O)C1=C(CSc2nc(C)c(C)c(C)c2C#N)OC(N)=C(C#N)C1c1cccs1 (stereo not drawn)
→ /, 0.055
CCCOc1ccc(OCCSc2nc3ccccc3n2CC(=O)O)cc1
→ /, 0.09
COc1cc(/C=C2/N=C(c3ccccc3)N(C)C2=O)cc(OC)c1OC
→ 0.7, -1.3
CCOC(=O)c1ccc(N2C(=O)NC(C(F)(F)F)(C(F)(F)F)C3=C2CC(C)(C)CC3=O)cc1
→ 0.4, -0.47
CCOc1ccc(S(=O)(=O)N(C)c2ccc(OCC(=O)N(C)C3CCN(C)CC3)cc2)cc1
→ 0.35, /
CS(=O)(=O)c1ccc(NC(=O)c2ccccc2-n2cnnn2)cc1
→ 0.6, /
NS(=O)(=O)c1ccc(NC(=O)CCC2COc3ccccc3O2)cc1 (stereo not drawn)
→ -0.05, -0.28
O=C(COC(=O)C12CC3CC(CC(O)(C3)C1)C2)Nc1cccc2nsnc12
→ -0.55, /
CC1=NN(C(=O)c2cccc(Cl)c2)C(O)(c2ccc(Cl)cc2)C1 (stereo not drawn)
→ /, 0.2

# Reformatted as comma-separated lines: 4 of the compounds above.
SMILES,AID504770,CapD inh
Cc1ccc(C2C(C#N)=C(SCC(=O)N3CCN(Cc4ccccc4)CC3)NC3=C2C(=O)CCC3)cc1 (stereo not drawn),-0.5,/
CC1=NN(C(=O)c2cccc(Cl)c2)C(O)(c2ccc(Cl)cc2)C1 (stereo not drawn),/,0.2
CCOC(=O)C1=C(CSc2nc(C)c(C)c(C)c2C#N)OC(N)=C(C#N)C1c1cccs1 (stereo not drawn),/,0.055
COc1cc(/C=C2/N=C(c3ccccc3)N(C)C2=O)cc(OC)c1OC,0.7,-1.3

# New compounds follow
# Under each structure: AID504770, CapD inh
CSC1=N/C(=C\c2ccc(Cl)cc2)C(=O)N1CCOc1ccc(Cl)cc1
→ 2.5, 9.8
Cc1cc(C)c(C)c(OCCCSC#N)c1
→ -0.15, 0.065
CCOC(=O)NC(=O)c1ccc2ccccc2n1
→ 0.7, 2.3
O=C(NNc1ccc(OC(F)(F)F)cc1)C1CCCCC1
→ -0.45, 0.56
O=C(O)c1ccccc1C(=O)Nc1ccc(Cl)cc1
→ -0.75, -0.54
CCOc1ccc2nc(NC(=O)c3ccc(C)cc3)sc2c1
→ 0.05, 3.1
CNC(=S)N/N=C(\C)c1ccc(N2CCCCCC2)cc1
→ -0.6, /
O=C(CSc1nc2ccccc2o1)N=Nc1c(O)[nH]c2ccccc12
→ 0.45, /
O=C(OCc1ccco1)c1sc2ccccc2c1Cl
→ 0.55, 0.14
O=C(Nc1ccc(-c2nc3ccccc3o2)cc1)C1CC1
→ -0.6, 43
CCCCOCC1CC2(CC(C)(c3csc(N)n3)OC2=O)C(=O)O1 (stereo not drawn)
→ 0.4, 0.12
O=C(Nc1ccc(N2CCN(Cc3ccccc3)CC2)cc1)c1ccccc1F
→ 1.6, 0.28
COc1ccc(C(=O)c2ccc(C)cc2)cc1
→ -0.3, 0.095
COC(=O)c1ccc(N=Cc2nc(-c3cc(OC)c(OC)c(OC)c3)oc2O)cc1
→ /, -0.36
CC(=O)N1CC(C)Oc2ccc(S(=O)(=O)Nc3ccccc3C)cc21 (stereo not drawn)
→ -0.4, -0.25
C=CCN(C(=O)Cc1c(C)noc1C)c1nc(-c2ccc(S(C)(=O)=O)cc2)cs1
→ 0, /
Cc1n[nH]c(C)c1Br
→ -1.4, 0.11
COC(=O)C1(N)CCCCC1
→ 0.2, /
CN1/C(=C/C(=O)C2CC2)C(C)(C)c2ccccc21
→ -0.6, 6
Brc1cc(Br)c2ncc(-c3ccc4ccccc4n3)cc2c1
→ -0.2, 8.1
CNC(=O)Nc1cc(C(F)(F)F)cc(C(F)(F)F)c1
→ -0.75, 0.015
CC(C)c1ccc(NC(=O)NCCS(C)=O)cc1 (stereo not drawn)
→ -0.05, 0.02
O=C(O)c1cccc(CN2CCN(c3ccccc3)CC2)c1
→ 0.35, 0.47
CC(C)NCC(O)COc1ccccc1 (stereo not drawn)
→ 2, /
COc1ccc(OC)c(-n2c(=S)[nH]c3cc(C(=O)NCc4ccccc4Cl)ccc3c2=O)c1
→ /, -0.58
O=C(Nc1ccc2c(c1)OCCO2)c1cccc2c1C(=O)N(Cc1cccnc1)C2
→ 1.6, -1.5
CCc1ccc(NC(=NC)c2ccco2)cc1
→ 0, /
CCOC(=O)c1cc2nc(Nc3ccc(OC)cc3)sc2s1
→ 0.9, 11
CCCC(Nc1cc(Cl)cc(Cl)c1)n1nnc2ccccc21 (stereo not drawn)
→ -0.3, 0.45
CC1CCCCC1NS(=O)(=O)c1cccc2nsnc12 (stereo not drawn)
→ -0.35, /
CC(C)(C)NC(=S)Nc1ccccc1C(F)(F)F
→ 0.75, 0.34
COC(=O)C1=C(C)OC(N)=C(C(=O)OCc2ccccc2)C12C(=O)Nc1ccccc12 (stereo not drawn)
→ /, -0.32
COC(=O)c1c(-c2c(Cl)cccc2Cl)noc1NC(=O)NN1CCOCC1
→ 0.8, 0.035
c1ccc(-c2cn3nc4c(nc3n2)CCCC4)cc1
→ /, -0.23
O=C(OCc1ccccc1)C1CCCN1C(=O)OCc1cccc(Oc2ccc(Cl)cc2)c1 (stereo not drawn)
→ /, 0.17
CCOC(=O)C1=C(C)N=c2s/c(=C/c3ccc(O)cc3)c(=O)n2C1c1cc(OC)c(OC)cc1Br (stereo not drawn)
→ /, -0.66
Cc1nc(Nc2nc3ccccc3c(=O)[nH]2)nc2c(C)cccc12
→ /, -0.49
COc1ccc(-c2cnn(Cc3ccc(Cl)cc3Cl)c2)cc1
→ /, -0.47
O=C(CC(c1cccs1)N1Cc2ccccc2C1=O)NCc1ccc(CN2CCOCC2)o1 (stereo not drawn)
→ -0.25, 0.56
C=CCn1c(C)cc(C(=O)COC(=O)c2oc3ccccc3c2COC)c1C
→ 1.3, /
Clc1ccc(N2CC=CCC2)nn1
→ 0.4, -0.36
COc1cc(Br)c(CN(CCc2ccc(O)cc2)C(=O)C(F)(F)F)cc1O
→ 0.05, 0.25
CC1CCCC(NC(=O)c2cc(=O)[nH]c3ccc(Br)cc23)C1C (stereo not drawn)
→ 0.05, /
CON(C)C(=O)CSc1cnccc1C(F)(F)F
→ /, -0.33
CSc1nc(C)cc(OCC(=O)N2CCOCC2)n1
→ -0.6, -0.33
CSc1nccc(-c2ccc(Br)s2)n1
→ /, 5.3
COc1ccc(CNC(=O)C(OC(=O)c2ccco2)c2ccc(C)cc2)cc1 (stereo not drawn)
→ -0.2, /
O=c1oc2ccccc2cc1-c1nc(-c2ccc(C(F)(F)F)cc2)no1
→ 0.3, 0.29
COC(=O)CNC(=O)c1cn(CC(C)C)c(=O)c2cc(OC)c(OC)cc12
→ -0.1, 0.045
CCn1c(=O)c(-c2[nH][nH]c(=O)c2/C=N/c2nccs2)c(O)c2ccccc21
→ 1.8, 0.38

# (further entries)
# Under each structure: AID504770, CapD inh
Cc1cnc(C(=O)OC(C)C(=O)Nc2cccc(C(F)(F)F)c2)cn1 (stereo not drawn)
→ -0.3, /
Cc1ccc(C(C#N)CC(=O)c2ccc(Cl)cc2)cc1 (stereo not drawn)
→ -0.1, -0.66
COc1ccc(C2C(C#N)=C(N)Oc3n[nH]c(-c4cccc([N+](=O)[O-])c4)c32)c(OC)c1 (stereo not drawn)
→ /, -0.19
COc1cccc(CNC(=O)c2cccc(S(=O)(=O)N3CC(C)OC(C)C3)c2)c1 (stereo not drawn)
→ -1.4, /
Cc1nn(-c2ccccn2)c2c1-c1nc(-c3ccc(Cl)cc3)ncc1CC2
→ -0.45, 0.08
COc1ccc(CCNC(=O)C(=O)Nc2ccc3c(c2)OCCO3)cc1OC
→ /, -0.3
COc1ccc(-c2cnnc(N/N=C/c3c(C)[nH]n(-c4ccccc4)c3=O)n2)cc1
→ -0.45, -0.12
Cc1cn2c3c(=O)n(C)c(=O)n(C)c3nc2n1Cc1ccccc1
→ -0.5, -0.92
O=C(Nc1cccc(F)c1)c1cccc(Cl)c1
→ /, 0.06
CC(C)(C)C(=O)COC(=O)c1nonc1N
→ 0.55, 0.45
CN(C(=O)c1cccc(S(=O)(=O)N2CCCCC2)c1)c1ccccc1
→ 1, 0.12
CC1CN(c2nc3ccccc3nc2SCC(=O)NCCc2ccccc2)CC(C)O1 (stereo not drawn)
→ -0.3, -0.07
c1ccc2[nH]c(CN3CCCCC3)nc2c1
→ -0.15, /
CCc1ccc(-c2csc(-c3cc4cc([N+](=O)[O-])ccc4oc3=O)n2)cc1
→ /, 0.035
CC(=O)Nc1nnc(CCS(=O)(=O)c2ccc(C)cc2)s1
→ -0.4, 0.33
COc1cccc2cc(C#N)c(=N)oc12
→ 1.2, -0.03
COC(=O)CSc1nc(-c2cccs2)cc(-c2ccc(F)cc2)c1C#N
→ /, 0.79
O=C(CSc1nc2ccccc2[nH]1)NC1CCCc2ccccc21 (stereo not drawn)
→ 0.4, 0.17
C/C(=N/NC(=O)CC1N=C(Cc2ccccc2)NNC1=O)c1ccco1 (stereo not drawn)
→ 0.5, /
Cc1ccc2cc3c(N)nn(C(=O)c4ccccc4F)c3nc2c1
→ 0.15, 0.2
CC1=NCCN1CCNC(=O)Nc1cc(C)cc(C)c1
→ 0.15, -1.1
COC(=O)c1ccccc1-n1cnc2ccccc2c1=O
→ 0.4, 2.8
Cc1cc(NC(=O)/C(=C/c2ccc3c(c2)OCO3)NC(=O)c2ccccc2Br)ccc1Br
→ /, 1.8
CN1/C(=C\C(=S)NC(=O)c2ccco2)C(C)(C)c2ccccc21
→ -0.4, /
COC(=O)c1cc(CCl)oc1C
→ 2.4, 0.38
CCOC(=O)C1=CN(c2ccc(OCC)cc2)C=C(C(=O)OCC)C1c1cc(Br)ccc1OC
→ /, 0.085
CN(C)C(CNC(=O)c1ccc(S(=O)(=O)N(C)C)cc1)Cc1ccccc1 (stereo not drawn)
→ 0.8, /
COC(=O)Cn1cnc2sc(-c3ccccc3)cc2c1=O
→ -0.8, 9.3
CCCCCn1c(=O)c(C(=O)Nc2ccccc2S(N)(=O)=O)c(O)c2ccccc21
→ 0.85, /
Cc1cc(-c2ccc(Br)cc2)oc(=O)c1NC(=O)c1ccccc1
→ /, 5.9

# Profiles as entered above:
# `CC(=O)N1CC(C)Oc2ccc(S(=O)(=O)Nc3ccccc3C)cc21` (stereo not drawn) is listed with AID504770: -0.4; CapD inh: -0.25
# `CC1(c2ccccc2)CC(C)(C)N(C(=O)Nc2ccccc2)c2ccccc21` (stereo not drawn) is listed with AID504770: /; CapD inh: -0.19
# `O=C(CSc1nc2ccccc2o1)N=Nc1c(O)[nH]c2ccccc12` is listed with AID504770: 0.45; CapD inh: /

# Further records follow.
# Under each structure: AID504770, CapD inh
CC1CCc2ccccc2N1S(=O)(=O)c1ccc(CCC(=O)O)cc1 (stereo not drawn)
→ -0.05, /
CSc1nc2ccccc2c(=O)n1-c1ccccc1
→ 0.45, 0.02
C=CCN1C(=O)C(Cc2ccc(OCC)cc2)SC1=Nc1ccc(C(=O)O)cc1 (stereo not drawn)
→ /, -0.51
Cc1cc(=O)n2[nH]c(C3CC3)cc2n1
→ 2.8, 1.8
O=C(CCCn1c(=O)[nH]c2ccccc2c1=O)NCCc1ccccc1
→ -1.1, 4.6
Cc1cc(=O)oc2cc(OC(=O)c3cc(F)c(F)c(F)c3F)ccc12
→ -0.45, /
CC(=O)Nc1nc(COc2ccc3ccccc3c2)cs1
→ 1.2, 0.075
N#Cc1c(N)nc(SCC(=O)c2cc3ccccc3oc2=O)c(C#N)c1-c1cccc(O)c1
→ /, 0.35
